CSC inhib = cancer stem cell inhibition; cancer stem cell-like cells viability, luminescence; inhibition, % at 7.5 µM; 300,000 tested, 1.1% active; AID 2717;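 active = mean at 75% or more and at least half the replicates too; inconclusive = mean and replicates disagree; tested in HMLE shEcad cells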;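 also: 0% = median of negative and 100% = median of positive control wells; the first replicate is given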
UUG fidelity = modulators of start codon recognition fidelity in yeast | S. cerevisiae UUG-firefly luciferase reporter, luminescence/redox ratio | activity score, % at 18.7 µM | 350,000 tested, 0.13% active | AID 602363;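 active = replicate mean at a twofold rise or more, about +100% in these data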;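 also: firefly luciferase made from a UUG start codon reports start codon fidelity; reporter light over untreated wells divided by growth signal over untreated wells; some hits fall short of that in this replicate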
Rce1 inhib = blocks yeast Ras-converting enzyme. calls only. AID 2563. yeast membranes, quenched prenylated peptide cleavage fluorescence. 290,000 tested, 0.27% active;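 active = fall in fluorescence gain of 50% or more versus controls, with final raw signal at or below 3038400; inconclusive = same 50% fall but final raw signal above 3038400; inactive = fall in fluorescence gain under 50%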;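 also: plate controls were neutral control wells for no effect and wells lacking membranes for full effect; tested at 10 µM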
eIF4H inh = inhibitors of RNA binding by human eIF4H; eIF4H fluorescence polarization binding assay; 290,000 tested, 0.94% active; AID 2012; Q15056; inhibition, % at 35 µM;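 active = 50% or more with normal probe brightness, or confirmed in later tests; inconclusive = above 50% with abnormal brightness, or retests that disagree; inactive = below 50% or failed in later tests; about a fifth of its hits are not listed in these tables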;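 also: calls also rest on retests at 20 µM and on dose response follow-up; 0% = protein and probe with vehicle and 100% = probe without protein; strong numbers were not always called active; many hits fall short of the cut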
MT1-MMP act inh = inhibitors of human MT1-MMP activation; P50281; HT1080 RFP-PRO-GFP cells, GFP/RFP ratio fluorescence, overnight; percent of plate control window, DMSO zero; GFP/RFP ratio change, % at 20 µM; 360,000 tested, 0.061% active;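 active = GFP/RFP ratio change of at least 30% with cell ATP level not reduced by more than half and red fluorescence within 50% of control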; also: strong numbers were not always called active
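Compound: 20 µM single dose, 1% DMSO / System: HT1080 RFP-PRO-GFP cells / Controls: DMSO and RFP-L50D-GFP cell wells / Read-out basis: GFP/RFP fluorescence ratio / Schedule: overnight compound exposure at 37 °C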
Env fusion inh = blocks HIV Env-driven cell-cell fusion. 360,000 tested, 1.1% active. HeLa-JRFL Env/CEM21 cell fusion, luciferase. AID 651610. inhibition, % at 12.3 µM;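 active = mean replicate inhibition score of at least 50 and every replicate individually at or above 50; inconclusive = only one of the two criteria met; inactive = mean below 50 and not all replicates reaching 50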;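 also: 0% = plate neutral controls and 100% = maraviroc near 300 nM; one replicate is shown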
PABP polyA inh = PABP-poly(A) binding inhibition. PABP-poly(A) RNA binding, fluorescence polarization. inhibition, % at 35 µM. P11940. AID 2014. 290,000 tested, 1% active;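 active = 50% or more with normal probe brightness, or confirmed in later tests; inconclusive = above 50% with abnormal brightness, or retests that disagree; inactive = below 50% or failed in later tests; about a fifth of its hits are not listed in these tables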;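 also: calls also rest on retests at 20 µM and on dose response follow-up; controls were probe without protein and protein plus probe with vehicle; some compounds called inactive have numbers as strong as hits; many hits fall short of the cut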
Target sequence (P11940 whole entry, looked up): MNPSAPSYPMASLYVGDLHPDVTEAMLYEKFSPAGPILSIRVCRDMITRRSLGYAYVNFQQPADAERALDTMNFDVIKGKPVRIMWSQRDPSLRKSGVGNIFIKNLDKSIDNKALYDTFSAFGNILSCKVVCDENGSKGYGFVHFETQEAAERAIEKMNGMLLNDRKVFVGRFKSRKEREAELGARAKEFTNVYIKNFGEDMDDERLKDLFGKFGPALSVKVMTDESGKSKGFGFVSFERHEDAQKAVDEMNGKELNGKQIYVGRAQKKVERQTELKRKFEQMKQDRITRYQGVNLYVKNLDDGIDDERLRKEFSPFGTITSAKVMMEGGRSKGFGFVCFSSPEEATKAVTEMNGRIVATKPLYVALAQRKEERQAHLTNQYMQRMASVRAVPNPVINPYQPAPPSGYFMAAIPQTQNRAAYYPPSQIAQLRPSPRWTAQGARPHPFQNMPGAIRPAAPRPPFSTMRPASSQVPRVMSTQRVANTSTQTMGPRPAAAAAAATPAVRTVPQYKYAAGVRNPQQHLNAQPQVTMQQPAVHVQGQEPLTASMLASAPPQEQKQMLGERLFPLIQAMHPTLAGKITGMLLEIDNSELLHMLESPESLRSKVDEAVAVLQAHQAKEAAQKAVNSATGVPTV
eIF4H inh retest = recorded beside eIF4H inh, whose call it bears; inhibition, %; compound at 20 µM; confirmation average;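 mean of two retest wells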
PABP polyA inh retest = also measured in PABP polyA inh; calls as there; inhibition, %; compound at 20 µM; confirmation repeats;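 mean of two retest wells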
MT1-MMP act inh RFP = second read-out of MT1-MMP act inh, no call of its own (marks repeat the call); RFP signal change, %; measured here: RFP expression control read;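 0 = vehicle wells; hits needed this value within 50% of zero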
* hit, by the source's call; i = inactive; ? = inconclusive; . = not tested or not shown; & = joins results of further samples. This is a subset; the hit share may differ from the screen's.

SMILES	CSC inhib	UUG fidelity	Rce1 inhib	eIF4H inh	MT1-MMP act inh	MT1-MMP act inh RFP	Env fusion inh	PABP polyA inh	others
c1ccc(C2CC(c3ccccc3)C(c3ccccc3)N2)cc1 (stereo not given)	10	6	i	-4	-5	0	15	-4
COc1cccc(C(O)c2nc(-c3cccc4cccnc34)cs2)c1 (stereo not given)	.	-3	.	.	1	1	3	.
Cc1ccccc1C(C)(O)c1cnc(C)n1Cc1ccccc1 (stereo not given)	.	-14	.	.	0	3	2	.
CCc1ccccc1NC(=O)c1cc(-c2cccc(O)c2)on1	6	-9	i	-2	0	-5	-45	12
Cc1cc(C)c2c(c1)[C@@H]1C=CC[C@@H]1[C@H](c1ccc(S(=O)(=O)N3CCOCC3)cc1)N2	2	.	.	16	4	9	-31	4
O=C(Nc1ccncc1)c1cc(-c2cccc(Br)c2)nc2ccccc12	106*	-20	i	.	2	-12	21	.
Cc1ccccc1CN1CCN(S(C)(=O)=O)CC1	-8	-13	i	-2	4	0	30	-2
CCN1C(=O)/C(=C/c2ccc(C)o2)N(C)C1=S	-3	.	i	11	2	3	-44	3
Cc1ccc(S(=O)(=O)Oc2ccc(C(c3c(C)[nH][nH]c3=O)c3c(C)[nH][nH]c3=O)cc2)cc1	-11	-23	i	13	3	7	.	-1
COc1ccccc1C(=O)NCC(=O)OCC(=O)c1cccc2ccccc12	-3	-9	i	.	1	4	-3	.
Cc1ccc2c(c1)NC(=O)C(CC(=O)Nc1ccc(Br)c(C)c1)O2 (stereo not given)	-2	-7	i	1	2	3	-7	-3
CC(=O)N1c2ccc(S(=O)(=O)N3CCCC3C(=O)NCc3ccccc3Cl)cc2CC1C (stereo not given)	.	15	i	-16	-2	1	-10	12
Cc1ccc(C(=O)N(CC(=O)NC2CCCC2)Cc2cccs2)s1	-2	-19	i	-6	4	2	-29	-4
CCCn1c(SCC(=O)Nc2ccc(OCC)cc2)nnc1C(C)C	-10	-2	i	-6	-2	7	47	-9
Cc1ccc(/C=C2\SC(=S)N(CCCC(=O)Nc3cccnc3)C2=O)cc1	0	-42	i	4	-2	-5	.	14
CC(/C=N/NC(=O)c1cc(-c2ccc(C)s2)[nH]n1)=C\c1ccccc1	87*	.	i	-14	-6	-18	-7	-10
CC(C)C(=O)c1cn(CC(=O)NCc2ccco2)c2ccccc12	-5	11	i	0	-1	0	.	3
O=C(CNC(=S)N(Cc1ccccc1)Cc1cccnc1)NCCc1ccccc1	2	14	i	15	10	3	.	-6
CC(=O)c1c(C)[nH]c(C(=O)CN2C(=O)NC(C)(C)C2=O)c1C	-3	-13	i	.	8	4	-1	.
COCCn1c(COc2cccc(OC)c2)nnc1SCC(=O)NC1CCCC1	6	-12	i	-9	-2	0	8	2
CCSc1nnc2c(n1)OC=Nc1ccc(Br)cc1-2	-10	-21	i	-2	3	2	.	12
CSc1ccccc1NC(=O)COc1ccc(S(=O)(=O)N2CCCC2)cc1	.	-1	i	4	3	-7	-47	0
Cc1nc(NC(C)C)c2oc3ccccc3c2n1	-12	-5	i	6	2	-10	.	7
CC(C)N1CC(C(=O)Nc2ccc(C#N)cc2)CC1=O (stereo not given)	-13	-3	i	-11	-2	0	2	-5
COc1cc(NC(=O)c2csc(-c3ccncc3)n2)cc(C(=O)Nc2cccc(C(F)(F)F)c2)c1	-14	-14&-21	i	-9	-1&-1	-3&-5	8&50	-4
COc1ccc(C(=O)Oc2cccnc2)cc1	-7	-39	i	-13	-2	1	.	11
Cc1cc(N2CCCCC2)c(F)cc1[N+](=O)[O-]	-14	-11	i	4	6	0	-71	-1
CS(=O)(=O)N(CC(=O)NN=C1CCCCCC1)c1ccc(Oc2ccccc2)cc1	7	-12	i	-8	5	9	4	-14
COCCN(C(=O)CSc1nnc(-c2ccncc2)n1C)c1c(N)n(CC(C)C)c(=O)[nH]c1=O	.	-6	.	.	-4	0	5	.
Cc1ccc(CNC(=O)CSc2nnc3n2CCCCC3)cc1	1	-28	.	.	-2	1	.	.
COC(=O)C(C)Sc1n[nH]c(=S)s1 (stereo not given)	-1	.	i	1	1	5	.	16
CCCCn1c(N)c(N(CCOC)C(=O)c2ccc3c(c2)C(=O)N(c2cc(C)ccc2C)C3=O)c(=O)[nH]c1=O	-11	17	i	1	-4	-1	-9	8
COc1ccc2nc3ccccc3nc2c1NC(=O)c1ccc(Cl)cc1Cl	-5	8	i	?	-95	2	3	19
CCOc1ccc(OCCOCCNCCOC)cc1	-10	.	i	0	1	2	-74	0
CC(=O)N1CCSc2ccc(S(=O)(=O)N3CCC(C)CC3)cc21	-16	-4	i	1	8	-13	-2	0
O=c1c2cn[nH]c2nc(SCc2ccc3c(c2)OCCO3)n1-c1ccccc1	16	-21	i	-3	-10	-9	-14	-10
Nc1ccc2nc(NC(=O)C3CCCCC3)sc2c1	33	-19	i	-4	2	-3	-42	-1
COc1ccc(C(=O)c2c(C)c3ccccc3n2CC(O)CNC(C)C)cc1 (stereo not given)	-8	.	i	2	2	-6	-90	8
NNC(=O)c1cc2c(s1)-c1cc(Cl)ccc1SC2	24	-7	i	27	-4	1	-10	-7
CC(C)(C)OC(=O)N1CCCC1C(=O)NC(Cc1ccccc1)C(=O)O (stereo not given)	-8	-21	i	-10	1	6	-56	9
Cc1ccc(C2C(C#N)=C(N)SC(N)=C2C#N)c(C)c1	7	-7	i	?	-160	8	.	?
FC(F)(F)c1nnc(N2CCN(c3ccc(Cl)cc3)CC2)s1	-9	.	i	10	1	-6	0	-2
Cc1nnc(SCC(=O)Nc2cc(C(F)(F)F)ccc2N2CCOCC2)o1	.	-23	i	-9	1	9	9	2
CCN(CC)C(=O)C1CCCN(C/C(C)=C/c2ccccc2)C1 (stereo not given)	-1	-2	i	4	1	1	.	32
CCN(c1ccc(NC(=O)COC(=O)CCc2nc3ccccc3n2-c2ccccc2)cc1)C(C)C	.	-5	i	6	-3	1	-11	4
CCOc1cc(C)c(Cl)cc1S(=O)(=O)NCc1ccc2c(c1)OCO2	31	7	i	7	1	-7	.	-5
O=C(NNC(=S)NC1CC2C=CC1C2)c1ccncc1 (stereo not given)	-9	-31	i	2	4	5	8	-6
CN(CC(=O)Nc1ccccc1Br)c1ncnc2sccc12	6	-21	i	-6	1	-9	19	-15
O=C(Nc1cccc2ccccc12)c1csc([C@@H]2O[C@H](CO)[C@H](O)[C@H](O)[C@H]2O)n1	.	-42	.	.	-2	0	3	.
COc1ccc(C(C(=O)NC2CCCC2)N(Cc2ccc(F)cc2)C(=O)c2ccn[nH]2)cc1OC (stereo not given)	.	4	i	-7	-1	2	.	8
Cc1nc2cc(NC(=O)N3CCN(c4ccccn4)CC3)ccc2o1	5	-33	i	-6	5	2	.	-9
COc1ccccc1NC(=O)Cn1c(C)nc2c(sc(=S)n2Cc2ccco2)c1=O	-8	-18	i	-9	4	1	1	-6
COc1ccccc1CNC(=O)Cc1ccc(OC)c(OC)c1	0	-8	i	3	2	3	18	1
CC1(C(=O)NS(=O)(=O)c2ccc(F)cc2F)CCN1C(=O)CC1CCCC1 (stereo not given)	.	0	.	.	-2	5	18	.
CCN(CC)CCn1c(OC)cc(=O)[nH]c1=O	8	4	i	-2	2	7	-15	6
COc1ccccc1C(CNC(=O)c1ccc(S(=O)(=O)NCc2ccco2)cc1)N(C)C (stereo not given)	-13	-1	i	-9	0	2	.	3
CN(C)CCCNS(=O)(=O)c1ccc(NC2CCCCCC2)c([N+](=O)[O-])c1	0	-4	i	71	4	-18	15	18	eIF4H inh retest=-5;PABP polyA inh retest=3
COc1ccccc1OCC(=O)N1CC2(C)CC1CC(C)(C)C2 (stereo not given)	8	-17	i	0	-2	-2	-70	-7
O=C(CN(Cc1ccc(F)cc1)C(=O)CCC(=O)Nc1ccccn1)NCc1ccc(F)cc1	-8	-17	i	6	-1	-2	-2	0
COc1cc(/C=C/C(C)=NNc2ccccc2)ccc1O	.	-19	.	.	-3	-11	-6	.

Carrying on.
SMILES	CSC inhib	UUG fidelity	Rce1 inhib	eIF4H inh	MT1-MMP act inh	MT1-MMP act inh RFP	Env fusion inh	PABP polyA inh	others
COc1ccc(/C=C/C(=O)OCC(=O)Nc2ccc(N3CCOCC3)cc2)cc1	-21	.	i	1	2	3	7	-6
COc1ccc(NC(=O)C(c2ccccc2)c2ccccc2)cn1	-26	.	i	5	-2	-5	-20	-4
Fc1ccc(Br)cc1C1C=C(c2ccc(Br)cc2)Nc2ncnn21 (stereo not given)	5	-12	i	12	-89	-3	-133	5
Cc1cccc(NC(=O)CN(C)C(=O)/C=C/c2ccccc2)c1C	.	-14	.	.	8	1	12	.
Cc1ccc(CC(=O)NCCc2ccc(S(N)(=O)=O)cc2)cc1	1	4	i	-6	5	0	-2	7
NC(=O)C1(N2CCCCC2)CCN(C(=S)Nc2ccc(Cl)cc2)CC1	.	-12	.	-2	7	-3	47	-3
COC(=O)C1=C(C)N(Cc2ccccc2)C(=O)N[C@H]1c1cccc(F)c1	-14	-5	i	.	0	3	-14	.
Cc1ccc2nsnc2c1S(=O)(=O)NC1CC1	-13	0	i	-10	2	-1	-8	2
COc1cccc(NC(=O)/C=C/c2ccccc2[N+](=O)[O-])c1	12	.	i	-10	2	1	-20	-2
CCOc1ccc(C(C)C)cc1S(=O)(=O)n1ccnc1C	-7	-19	i	-3	7	1	4	-19
COc1ccccc1C(=O)NCC(=O)NNC(=O)c1cccs1	-11	-11	.	.	0	3	17	.
CC(C)(C)c1ccc(C(=O)Nc2ccc(C(=O)N3CCOCC3)cc2)cc1	9	7	i	-2	2	-4	.	-1
CC(C)(C)CC(C)(C)SSc1n[nH]c(=S)s1	.	-15	.	.	3	0	-8	.
N#CCc1ccc(C(=O)c2ccccc2)s1	-4	.	i	-3	0	8	.	-3
Cc1ccc(SCC(=O)OCC(=O)N(CC(C)C)c2c(N)n(Cc3ccccc3)c(=O)[nH]c2=O)c(C)c1	6	-4	i	.	4	2	-13	.
O=C(NC1CCN(Cc2ccccc2Cl)CC1)c1ccccc1	1	-12	i	1	7	3	-48	-5
O=C1N=C(N2CCN(c3ccccc3)CC2)SC1Cc1ccccc1 (stereo not given)	-25	.	i	31	2	-1	23	-1
COc1ccc(C)cc1S(=O)(=O)N1CCN(c2ccccc2)CC1	-10	-19	i	10	0	-4	3	0
O=C(COC(=O)c1ccc(NS(=O)(=O)c2cccs2)cc1)Nc1nc2c(F)c(F)c(F)cc2s1	.	.	.	34	-5	-5	.	4
CC(C)C(=O)Nc1ccc(NC(=O)c2cccs2)cn1	-10	-11	i	6	-5	2	1	36
CCN(CC)S(=O)(=O)c1ccc2[nH]cc(C(=O)NCCC3=CCCCC3)c(=O)c2c1	36	0	i	-8	-9	-28	.	6
CSc1nc(NC(C)=O)nc(C)c1Cl	.	-11	i	2	-2	4	.	7
COC(=O)CC1C(=O)NCCN1C(=O)CSc1nc2ccc([N+](=O)[O-])cc2s1 (stereo not given)	6	.	i	-8	-2	-2	-3	0
CC1(C)CC(=O)C2=C(C1)N(c1ccccc1)C(=O)C(C(=O)OCc1ccccc1)C2 (stereo not given)	.	-11	.	.	-1	1	-7	.

Source: PubChem (several laboratories)
